# Ecoli growth – blocks Escherichia coli growth | OD600, 23 h; active compounds read low | OD600 absorbance (no concentration beside the values) | 330,000 tested, 0.21% active;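 active means OD600 absorbance below the run mean of sample wells minus 3.6 SD, in any replicate, cut at about 0.56 in these data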;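 further: stock transfer was 300 nL into about 60 µL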
# An asterisk follows results filed as active; & = joins results of further samples. Only part of the results is shown; the hit share may differ from the screen's.
# The opening 3 records, ahead of the listing:
item	Molecule	Ecoli growth
1	CC1=NN(c2ccccc2)C(=O)C1=Cc1cn(CCC#N)nc1-c1ccc(Cl)cc1	0.707
2	CC1CN(C(C)CO)C(=O)c2cccc(NC(=O)NC3CCCCC3)c2OC1CN(C)S(=O)(=O)c1ccccc1 (configuration not stated)	0.705
3	CC(NC(=O)OCc1ccccc1)C(=O)NNC(=O)C(C)NC(=O)OCc1ccccc1 (configuration not stated)	0.676

# Main list, from the first entry:
item	Molecule	Ecoli growth
1	CC1=NN(c2ccccc2)C(=O)C1=Cc1cn(CCC#N)nc1-c1ccc(Cl)cc1	0.707
2	CC1CN(C(C)CO)C(=O)c2cccc(NC(=O)NC3CCCCC3)c2OC1CN(C)S(=O)(=O)c1ccccc1 (configuration not stated)	0.705
3	CC(NC(=O)OCc1ccccc1)C(=O)NNC(=O)C(C)NC(=O)OCc1ccccc1 (configuration not stated)	0.676
4	O=C1C=C(c2ccc3ccccc3c2)CC(c2ccc(Cl)cc2)C1 (configuration not stated)	0.742
5	CCCCN1C(=S)NCC1Cc1ccccc1 (configuration not stated)	0.694
6	c1ccc(SCc2cn(CC3CCC(C4CCC(Cn5cc(CSc6ccccc6)nn5)O4)O3)nn2)cc1 (configuration not stated)	0.658
7	CC1CCC(=O)N(C(CN=[N+]=[N-])Cc2ccccc2)CC1 (configuration not stated)	0.685
8	CC(C)CC1NC(=O)C(C(C)C)NC(=O)c2cc([N+](=O)[O-])cc(I)c2NCCC(C(N)=O)NC1=O (configuration not stated)	0.717
9	O=C(C1=CC(c2ccc3c(c2)OCO3)CC(OCCCCO)O1)N1CCN(Cc2ccc3c(c2)OCO3)CC1 (configuration not stated)	0.651&0.716
10	COC(=O)C=Cc1cc(F)ccc1S(=O)(=O)NC(C)(C)C	0.691
11	CCC(C)C(CN)NCC1(c2ccccc2)CC1 (configuration not stated)	0.706
12	Cc1c(C2C(CC#N)C2(C)C)c2ccccc2n1C (configuration not stated)	0.697
13	COc1ccc(NC(=O)c2nc[nH]c2C(=O)NC(C)C(=O)OC(C)(C)C)cc1 (configuration not stated)	0.68
14	Cc1cccc(C(=O)OC2C(C)NS(=O)(=O)C3CC4C=C[C@]23O4)c1 (some centres not stated)	0.664
15	COc1ccc(C2C3C(=O)N(C(C)(C)C)C(=O)C3[C@]3(CC(C)C)C(=O)N(c4ccc(C(F)(F)F)cc4)C(=O)N23)cc1 (some centres not stated)	0.666
16	CC(C)CC1CN=C(Nc2ccccc2)N1CCC1CCCCC1 (configuration not stated)	0.67
17	C#CCOCCOCCOCCNc1nc(N2CCN(C(=O)C(CCC(=O)O)n3cc(C(N)Cc4ccc(O)cc4)nn3)CC2)nc(N2CCN(C(=O)C(CCC(=O)O)n3cc(C(N)C(C)CC)nn3)CC2)n1 (configuration not stated)	0.688
18	COc1ccc(C=Cc2nc3sc4c(c3c(=O)o2)CCC4)cc1	0.713
19	Cc1ccc(CN2C(c3ccccc3)COCCS2(=O)=O)cc1 (configuration not stated)	0.68
20	Cc1noc(C)c1S(=O)(=O)N(C)CC1Oc2ccc(NC(=O)CCC(F)(F)F)cc2C(=O)N(C(C)CO)CC1C (configuration not stated)	0.696
21	COc1ccc(OC2C=CC(c3ccccc3)OC2COC(=O)CCC(C)=NOC(C)c2cc(-c3c(C)cc(C)cc3C)no2)cc1 (configuration not stated)	0.748
22	CC(C)C(NC(=O)c1ccccc1)C(=O)OCC(=O)NCCc1ccc(F)cc1 (configuration not stated)	0.671
23	Cc1ccccc1S(=O)(=O)N1C(c2ccc(Cl)cc2)CC=C(C(=O)O)C1c1ccc(F)cc1 (configuration not stated)	0.714
24	COc1ccc(C2C3C(=O)N(C(C)(C)C)C(=O)C3[C@]3(Cc4ccc(Cl)cc4)C(=O)N(c4cccc(C)c4)C(=O)N23)cc1 (some centres not stated)	0.72

# From compound 6 as far as 24, as listed above:
item	Molecule	Ecoli growth
6	c1ccc(SCc2cn(CC3CCC(C4CCC(Cn5cc(CSc6ccccc6)nn5)O4)O3)nn2)cc1 (configuration not stated)	0.658
7	CC1CCC(=O)N(C(CN=[N+]=[N-])Cc2ccccc2)CC1 (configuration not stated)	0.685
8	CC(C)CC1NC(=O)C(C(C)C)NC(=O)c2cc([N+](=O)[O-])cc(I)c2NCCC(C(N)=O)NC1=O (configuration not stated)	0.717
9	O=C(C1=CC(c2ccc3c(c2)OCO3)CC(OCCCCO)O1)N1CCN(Cc2ccc3c(c2)OCO3)CC1 (configuration not stated)	0.651&0.716
10	COC(=O)C=Cc1cc(F)ccc1S(=O)(=O)NC(C)(C)C	0.691
11	CCC(C)C(CN)NCC1(c2ccccc2)CC1 (configuration not stated)	0.706
12	Cc1c(C2C(CC#N)C2(C)C)c2ccccc2n1C (configuration not stated)	0.697
13	COc1ccc(NC(=O)c2nc[nH]c2C(=O)NC(C)C(=O)OC(C)(C)C)cc1 (configuration not stated)	0.68
14	Cc1cccc(C(=O)OC2C(C)NS(=O)(=O)C3CC4C=C[C@]23O4)c1 (some centres not stated)	0.664
15	COc1ccc(C2C3C(=O)N(C(C)(C)C)C(=O)C3[C@]3(CC(C)C)C(=O)N(c4ccc(C(F)(F)F)cc4)C(=O)N23)cc1 (some centres not stated)	0.666
16	CC(C)CC1CN=C(Nc2ccccc2)N1CCC1CCCCC1 (configuration not stated)	0.67
17	C#CCOCCOCCOCCNc1nc(N2CCN(C(=O)C(CCC(=O)O)n3cc(C(N)Cc4ccc(O)cc4)nn3)CC2)nc(N2CCN(C(=O)C(CCC(=O)O)n3cc(C(N)C(C)CC)nn3)CC2)n1 (configuration not stated)	0.688
18	COc1ccc(C=Cc2nc3sc4c(c3c(=O)o2)CCC4)cc1	0.713
19	Cc1ccc(CN2C(c3ccccc3)COCCS2(=O)=O)cc1 (configuration not stated)	0.68
20	Cc1noc(C)c1S(=O)(=O)N(C)CC1Oc2ccc(NC(=O)CCC(F)(F)F)cc2C(=O)N(C(C)CO)CC1C (configuration not stated)	0.696
21	COc1ccc(OC2C=CC(c3ccccc3)OC2COC(=O)CCC(C)=NOC(C)c2cc(-c3c(C)cc(C)cc3C)no2)cc1 (configuration not stated)	0.748
22	CC(C)C(NC(=O)c1ccccc1)C(=O)OCC(=O)NCCc1ccc(F)cc1 (configuration not stated)	0.671
23	Cc1ccccc1S(=O)(=O)N1C(c2ccc(Cl)cc2)CC=C(C(=O)O)C1c1ccc(F)cc1 (configuration not stated)	0.714
24	COc1ccc(C2C3C(=O)N(C(C)(C)C)C(=O)C3[C@]3(Cc4ccc(Cl)cc4)C(=O)N(c4cccc(C)c4)C(=O)N23)cc1 (some centres not stated)	0.72

# The results go on.
item	Molecule	Ecoli growth
25	COC(=O)[C@@]12CCCN1C(c1ccc(-c3ccc(OC)cc3)cc1)C1C(=O)N(C)C(=O)C12 (some centres not stated)	0.688
26	COC(=O)C(Cc1ccccc1)NC(=O)C1CC1C(NC(=O)OCc1ccccc1)c1ccccc1 (configuration not stated)	0.689
27	CCOC(=O)C1C2COc3ccccc3C2N2C(=O)N(c3ccc(C(F)(F)F)cc3)C(=O)[C@@]12C (some centres not stated)	0.719
28	CCOC1OC(C(=O)N2CCOCC2)=CC(c2ccccc2)C1CCCO (configuration not stated)	0.706
29	C#CCNC(=O)C=Cc1ccc(C)cc1	0.635
30	CN1C(=O)C2C(C1=O)C(c1ccc(Br)cc1)N1C(=O)c3ccccc3NC(=O)C21 (configuration not stated)	0.693
31	CC1(C)SC2C(C(=O)OCc3ccccc3)NC(=O)N2C1C(=O)OCc1ccccc1 (configuration not stated)	0.722
32	CCN1C(=NCc2cc(OC)c(OC)c(OC)c2)NC(c2cccc(C(F)(F)F)c2)C(C(=O)OC)=C1C (configuration not stated)	0.66
33	CC(C)c1cccc(C(C)C)c1OC(=O)C1OC(C(C)(C)C)=CC1c1ccccc1 (configuration not stated)	0.684
34	CN1CC2C(c3ccc(Cl)nc3)C3(c4ccc(C#N)cc4)CC2(C3)C1c1ccccc1 (configuration not stated)	0.686
35	COc1ccc2c(c1)C1=NN(C(C)=CC(C)=O)C(c3cccc(F)c3)C1CC2 (configuration not stated)	0.678
36	O=C(NCc1ccccc1)C1=CC(c2coc3ccccc3c2=O)CC(OCCCCO)O1 (configuration not stated)	0.675&0.69
37	COc1ccc(SCCN2CCC(O)CCC2=O)cc1 (configuration not stated)	0.663
38	COc1ccc(CC2CN3C(=NCC3C)N2CC(C)NC(=O)c2ccc(C)c(Br)c2)cc1 (configuration not stated)	0.68
39	O=C(NC1CC1)C1=CC(c2ccc3c(c2)OCO3)CC(OCCCCO)O1 (configuration not stated)	0.674
40	O=C(NCCc1ccccc1)C1CC=CC2CCN(C3CCCCC3)C(=O)C21 (configuration not stated)	0.66
41	COc1cccc(C2=CC(=O)CC(c3ccc(F)cc3)C2)c1OC (configuration not stated)	0.671
42	NC1=NC(=O)C(=Cc2ccc(-c3ccc(S(N)(=O)=O)cc3)o2)S1	0.697
43	CCC(=O)Nc1cccc(C2=NOC3(C2)CC(C(N)=O)N(C(=O)CC(c2ccccc2)c2ccccc2)C3)c1 (configuration not stated)	0.707
44	C#CCOCCOCCOCCNc1nc(N2CCN(C(=O)C(CCCCN)n3cc(C(N)CC(N)=O)nn3)CC2)nc(N2CCN(C(=O)C(C(C)O)n3cc(C(N)CCCCN)nn3)CC2)n1 (configuration not stated)	0.686
45	Cc1cc(C=C2SC(N)=NC2=O)c(C)n1-c1ccccc1	0.73
46	Cc1ccc(C)c(C(O)=C2C(=O)C(=O)N(CCCn3ccnc3)C2c2cccnc2)c1 (configuration not stated)	0.678
47	COc1ccc(C=C2C(=O)N=C3SCCN23)cc1	0.63
48	O=C1CC(c2ccc(OC3OC(CO)C(O)C(O)C3O)cc2)Oc2cc(O)ccc21 (configuration not stated)	0.631
49	COC(=O)C1C[C@@]2(O)C(O)C(O)C(O)CC2N1Cc1ccccc1OS(=O)(=O)c1ccc(C)cc1 (some centres not stated)	0.709
50	C#CCOCCOCCOCCNc1nc(N2CCN(C(=O)C(CCC(=O)O)n3cc(C(N)C(C)CC)nn3)CC2)nc(N2CCN(C(=O)C(C(C)CC)n3cc(C(N)Cc4ccc(O)cc4)nn3)CC2)n1 (configuration not stated)	0.626
51	CCN1C(=O)C2C(c3ccc(-c4ccccc4)cc3)N3CCC[C@@]3(C(=O)OC)C2C1=O (some centres not stated)	0.697
52	COC(=O)C1=C(C)N(Cc2ccco2)C(=O)NC1c1ccco1 (configuration not stated)	0.708
53	NC(=O)C1CCCNc2c(I)cc([N+](=O)[O-])cc2C(=O)NC(CO)C(=O)NCC(=O)N1 (configuration not stated)	0.68
54	CC1CN(C(C)CO)C(=O)c2cccc(NC(=O)C3CC3)c2OC1CN(C)Cc1ccc(-c2ccccc2)cc1 (configuration not stated)	0.675
55	CC[N+]1(C)C2CCC1CC(OC(=O)C1CCC(C(=O)OC3CC4CCC(C3)[N+]4(C)CC)(c3ccccc3)c3ccccc31)C2 (configuration not stated)	0.675
56	Cc1noc(C)c1S(=O)(=O)N(C)CC1Oc2ccc(NC(=O)C3CCCCC3)cc2C(=O)N(C(C)CO)CC1C (configuration not stated)	0.637
57	Oc1[nH]c2ccccc2c1C=Nc1nccs1	0.64
58	O=[N+]([O-])c1cccc2ccc(C=Cc3ccc(Cl)cc3)nc12	0.696
59	COc1ccc(-c2c(C3C4C=CCC[C@@]4(C)C(=O)N3Cc3ccccc3)ccc3ccccc23)cc1OC (some centres not stated)	0.732
60	O=C1C=C(C=Cc2ccccc2)CC(c2ccc3c(c2)OCO3)C1 (configuration not stated)	0.704
61	CC(NC(=O)c1nc[nH]c1C(=O)NCC(=O)OC(C)(C)C)c1ccccc1 (configuration not stated)	0.709
62	C=CCCC(Cc1ccc(F)cc1)C(=O)OCCNC(=O)C(CC=C)CC(=O)NC(CO)Cc1ccccc1 (configuration not stated)	0.681
63	COc1ccc(C2CC(=O)C=C(c3cccc(OCc4ccccc4)c3)C2)cc1 (configuration not stated)	0.75
64	NC(=O)CCC1NC(=O)C(Cc2ccc(O)cc2)NC(=O)c2cc([N+](=O)[O-])cc(F)c2OCCC(C(N)=O)NC1=O (configuration not stated)	0.704
65	O=C(C=Cc1cccc([N+](=O)[O-])c1)N1CCN(C(=O)c2ccco2)CC1	0.648
66	C#CCOCCOCCOCCNc1nc(N2CCOCC2)nc(N2CCN(C(=O)C(C(C)CC)n3cc(CCCN=C(N)N)nn3)CC2)n1 (configuration not stated)	0.719
67	CCCCC(CN(N=O)C(Cc1ccccc1)CN(C)N=O)N(CCc1ccccc1)N=O (configuration not stated)	0.728
68	CC1CN(C(C)CO)C(=O)Cc2cc(NC(=O)CCC(F)(F)F)ccc2OC1CN(C)Cc1ccc(-c2ccccc2)cc1 (configuration not stated)	0.686
69	C=C1CCN(C(CC(C)C)C(=O)NCc2ccc(Cl)c(Cl)c2)S(=O)(=O)c2ccccc21 (configuration not stated)	0.707
70	CC1CC=CC2C1C(=O)N(Cc1ccccc1)C2c1ccc2ccccc2c1 (configuration not stated)	0.659
71	CCOC(=O)C1C2COc3ccccc3C2N2C(=O)N(c3ccc(OC)cc3)C(=O)[C@@]12C (some centres not stated)	0.683
72	COC(=O)C1CC2CCC(O)CC2N1Cc1ccc(C)s1 (configuration not stated)	0.676
73	C#CCOCCOCCOCCNc1nc(N2CCN(C(=O)C(CCC(=O)O)n3cc(C(N)CC(C)C)nn3)CC2)nc(N2CCN(C(=O)C(CCC(=O)O)n3cc(C(N)CC(C)C)nn3)CC2)n1 (configuration not stated)	0.696
74	C#CCOCCOCCOCCNc1nc(N2CCN(C(=O)C(C)n3cc(CCC(=O)O)nn3)CC2)nc(N2CCN(C(=O)C(CCCCN)n3cc(CCCC)nn3)CC2)n1 (configuration not stated)	0.637
75	CC1(C)OC2CC3C4CCC5=CC(=O)CC[C@]5(C)[C@@]4(F)C(O)C[C@]3(C)[C@]2(C(=O)CCl)O1 (some centres not stated)	0.683
76	CCN(CC)C(=O)c1[nH]cnc1C(=O)NC(CC(C)C)C(=O)OC(C)(C)C (configuration not stated)	0.708
77	CCOC(=O)C1=CCC(c2ccco2)N(S(=O)(=O)c2ccc(C)cc2)C1C(=O)OCC (configuration not stated)	0.663
